# From PubChem BioAssay
# KCNQ2 block = KCNQ2 potassium channel inhibitors, primary screen, cell-based, CHO-K1, FluxOR thallium flux, B-score (AID 2156) | 20 min; hits give low values; only compounds with negative scores are shown here; some inactives read as strong as hits | B-score at 10 µM | O88943 | actives 1.1% (n = 310,000);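 active = fluorescence ratio B-score at most minus 3 library SDs, with starting brightness B-score within 2 library SDs, cut at about -5.5 in these data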
# Target sequence (O88943 whole entry, looked up): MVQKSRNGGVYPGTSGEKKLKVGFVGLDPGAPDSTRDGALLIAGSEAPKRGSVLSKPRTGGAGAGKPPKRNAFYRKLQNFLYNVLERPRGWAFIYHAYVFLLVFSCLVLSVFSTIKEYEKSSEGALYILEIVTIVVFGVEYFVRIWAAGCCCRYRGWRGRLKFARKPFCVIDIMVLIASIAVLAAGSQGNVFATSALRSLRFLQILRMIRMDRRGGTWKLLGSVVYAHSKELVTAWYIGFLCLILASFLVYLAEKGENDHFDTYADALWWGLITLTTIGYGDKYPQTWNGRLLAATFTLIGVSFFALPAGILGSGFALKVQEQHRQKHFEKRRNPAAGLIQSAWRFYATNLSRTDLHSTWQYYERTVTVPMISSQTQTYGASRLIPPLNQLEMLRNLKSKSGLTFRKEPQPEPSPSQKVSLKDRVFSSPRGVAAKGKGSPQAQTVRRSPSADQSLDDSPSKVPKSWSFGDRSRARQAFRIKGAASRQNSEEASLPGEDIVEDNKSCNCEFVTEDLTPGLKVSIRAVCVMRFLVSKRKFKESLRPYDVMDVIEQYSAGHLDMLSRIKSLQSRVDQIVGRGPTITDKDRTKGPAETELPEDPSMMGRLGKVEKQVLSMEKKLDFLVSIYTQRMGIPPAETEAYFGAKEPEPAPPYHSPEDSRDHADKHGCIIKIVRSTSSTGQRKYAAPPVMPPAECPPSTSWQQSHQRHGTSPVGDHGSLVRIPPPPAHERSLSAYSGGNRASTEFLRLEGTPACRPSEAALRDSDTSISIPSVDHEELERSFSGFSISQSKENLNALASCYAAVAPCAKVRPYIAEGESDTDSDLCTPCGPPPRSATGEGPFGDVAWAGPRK
# KCNQ2 block baseline = further read-out of KCNQ2 block, marked with its call; B-score; measured here: initial fluorescence intensity artifact check;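 brightness before thallium and not channel activity; 0 = typical well and far values either way flag optical interference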
# Numbers without * were called inactive; i = inactive.
mol	KCNQ2 block	KCNQ2 block baseline
C=CCc1c(C)nc(-c2ccccc2)nc1N/N=C(\C)c1ccc(N)cc1	i	-0.36
O=C(O)C=C1CCN(c2ncc(C(F)(F)F)cc2Cl)CC1	i	1.8
O=C(Nc1ccc2nc3n(c(=O)c2c1)CCCC3)c1cc([N+](=O)[O-])ccc1F	i	-2.5
O=C(Nc1cccc(Cl)c1)Nc1cccc(Cl)c1	i	0.05
C=CCOc1c(Cl)cc(C(=S)N2CCCC2)cc1OCC	i	0.35
COc1ccc(OC)c(N(CC(=O)Nc2cccc3ccccc23)S(C)(=O)=O)c1	i	-0.26
Cc1ccccc1OCCC(=O)OCC(=O)N1c2ccccc2NC(=O)C1(C)C	i	-0.59
Cc1ccc(C)c(N=Nc2nc3ccccc3n2C)c1	-6*	0.01*
Cc1cccc(NC(=O)C2CCCN(S(=O)(=O)c3c(C)nn(C)c3C)C2)c1 (stereo not drawn)	i	-0.42
COc1ccc(C(=O)CC(SCC(NC(C)=O)C(=O)O)c2ccc(Cl)cc2)cc1OC (stereo not drawn)	i	-0.41
C=CCSc1nc2ccsc2c(=O)n1-c1cccnc1	i	-0.03
COc1cc(/C=C/C(=O)O)cc(S(=O)(=O)NCCCC(=O)O)c1OC	i	3.2
CCN(CC)S(=O)(=O)c1ccc(N/N=C(\C)c2ccncc2)nc1	i	-0.52
CC1(c2cccc([N+](=O)[O-])c2)CC(C)(C)N(C(=O)c2ccccc2)c2ccccc21 (stereo not drawn)	-7.5*	1.3*
COc1ccc(C2N(c3ccc(Cl)cc3)N=C(C(C)=O)N(C)N2C(C)=O)cc1 (stereo not drawn)	i	0.76
O=C(c1ccc(CNc2c(N3CCCC3)c(=O)c2=O)cc1)N1CCN(C2CCCCC2)CC1	i	0.83
Cc1cc(C(=O)N2CCN(c3ncccn3)CC2)c2cc(F)ccc2n1	i	0.18
COc1ccc(NCc2n[nH]nc2-c2ccccc2)cc1Cl	i	-0.15
Cc1cc(=O)n2[nH]cc(-c3ccccc3)c2n1	i	-0.83
CCOc1cc(/C=N/NC(=O)Cc2ccc(C(F)(F)F)cc2[N+](=O)[O-])c(Br)cc1OC	i	0.27
O=C(COC(=O)c1ccccc1-c1nc2ccccc2s1)NC1CCS(=O)(=O)C1 (stereo not drawn)	i	-1.4
NC(N)=NS(=O)(=O)c1ccc(NC(=S)NC(=O)c2ccccc2)cc1	i	0.03
Cc1cccn2c(=O)c3cc(C(=O)NC4CCCCC4)sc3nc12	i	-0.53
CC(C)COc1ccc(Br)cc1CNC(C)(C)C	i	1.4
Cc1cc(C(=O)COc2cccc(-n3cnnn3)c2)c(C)n1-c1ccccc1	i	-1.1
CC(=O)Nc1ccc(NC(=O)CSc2nc(=O)n(Cc3ccncc3)c3c2CCC3)cc1	i	0.11
c1ccc(C2=Nc3ccccc3SC2c2nc3ccccc3[nH]2)cc1 (stereo not drawn)	i	0.3
CCOC(=O)N1CCN(C(=O)c2ccccc2NS(=O)(=O)c2ccc(C)cc2)CC1	i	0.17
Cc1cnc(NC(=O)CSc2c(Cl)cccc2Cl)s1	i	1.7
COc1cc(OC)cc(C(=O)Nc2ccccc2NC(C)=O)c1	i	0.02
COC(=O)c1sccc1NC(=S)N(C)C1CCCCC1	i	1.8
O=C(CSc1nnc(CNC(=O)c2ccccc2F)o1)NC1CCCCC1	i	1.7
COC(=O)c1ccc(COc2ccc(C3C4=C(CCCC4=O)Nc4onc(C)c43)cc2)cc1 (stereo not drawn)	i	-0.33
O=C(Cc1ccsc1)N1CCN(S(=O)(=O)c2cccc(F)c2)CC1	i	0.75
CC(C)(C)C1CCC(=NNC(=O)CN(c2ccccc2)S(=O)(=O)c2ccccc2[N+](=O)[O-])CC1 (stereo not drawn)	i	-0.9
OC1CCCN(CC(O)COc2ccc(-c3ccccc3)cc2)C1 (stereo not drawn)	i	1.1
CCCCC(CC)C(=O)NCC(C)NC(=O)C(CC)CCCC (stereo not drawn)	i	0.56
COc1ccccc1CNC(=O)C/C(C)=N/NC(=O)COc1ccc(C)cc1Br	i	-0.03
Cc1cc(N/N=C/c2ccccc2F)nc(NCc2ccccc2)n1	i	-0.13
Cc1nc(-c2ccc(S(=O)(=O)Oc3ccccc3Cl)s2)cs1	i	-0.55
CN1/C(=C\C=N\NC(=O)c2ccccc2Br)C(C)(C)c2ccccc21	i	0.86
COc1ccc2nc(-c3ccccn3)[nH]c2c1	i	-0.31
Cc1cc(NC(=O)NC(=O)c2ccccc2)no1	i	-1.4
COc1ccc(Cl)cc1NC(=O)Cc1c(F)cccc1Cl	i	-0.24
COc1ccc(OC2CCN(S(=O)(=O)c3ccc(F)cc3)CC2)cc1	i	0.13
CCN(CC)Cc1c(CC(C)C)oc(C)c1C(=O)O	i	2
CNCCC(=O)N1c2ccccc2CCc2ccc(NC(=O)OC)cc21	i	-1.7
COC(=O)c1c(F)c(F)c(N2CCOCC2)c(F)c1F	i	0.96
N#Cc1ccccc1NC(=O)COc1c(Br)cc(Br)c2cccnc12	i	1.3
COc1ccccc1NC(=O)Nc1cccc(NC(C)=O)c1	i	-2.7

# Structural class, those above containing a tert-butyl group.
mol	KCNQ2 block	KCNQ2 block baseline
CC(C)COc1ccc(Br)cc1CNC(C)(C)C	i	1.4
CC(C)(C)C1CCC(=NNC(=O)CN(c2ccccc2)S(=O)(=O)c2ccccc2[N+](=O)[O-])CC1 (stereo not drawn)	i	-0.9

# Next part:
mol	KCNQ2 block	KCNQ2 block baseline
O=C(O)C(c1ccccc1)N1C(=O)/C(=C/c2cccs2)SC1=S (stereo not drawn)	i	-0.07
COc1ccc(Br)c(C(=O)NCC2CCCCC2)c1	i	-0.04
COc1cc(S(=O)(=O)Nc2ccc(C)cc2)ccc1N=Cc1c(C)[nH]n(-c2ccccc2)c1=O	i	-0.8
CCCCCCC(=O)Nc1nc(C)c(-c2csc(Nc3ccccc3OC)n2)s1	i	-0.21
CCN(Cc1ccncc1)C(=O)CC1C(=O)NCCN1Cc1ccc(F)c(F)c1 (stereo not drawn)	i	2.2
Cc1ccc(C(=O)NCC(=O)OCc2c(F)cccc2Cl)cc1	i	-0.49
O=C(Oc1oc(-c2ccco2)nc1C=Nc1ccccc1)c1ccco1	i	-1.2
O=C(NCc1cccc(C(F)(F)F)c1)c1cc(-c2ccccc2)nn1CC1CC(c2cccnc2)=NO1 (stereo not drawn)	i	-0.3
CCc1ccc[n+](-c2[nH]c(=O)sc2/C=N/N=C(\N)[O-])c1	i	0.44
Cn1c(=O)c2c(nc(Cc3ccc(N)cc3)n2C)n(C)c1=O	i	0.11
CCOc1ccc(NC(=O)c2ccc(CC)s2)c([N+](=O)[O-])c1	i	0.42
COc1ccc2nc(N(CCN(C)C)C(=O)c3ccc4c(c3)OCCO4)sc2c1	i	-0.02
CN1CCN(Cc2cc(Cl)c3cccnc3c2OC(=O)c2cccs2)CC1	i	0.51
COc1ccc(CN2C[C@H](C)[C@@H](CC(=O)NCc3ccccc3)C2=O)cc1	i	-0.43
CCOc1ccc(S(=O)(=O)N(CC(=O)NN=C2CCN(C)CC2)c2ccc(C)cc2)cc1	i	-0.05
O=C(COc1ccc(S(=O)(=O)N2CCOCC2)cc1)NC1CC1	i	1.1
CC1CCCCC1NC(=O)CSc1nnc(N)s1 (stereo not drawn)	i	1.5
CCn1c(C(=O)N2CCC(C(=O)NCCCSC3CCCCC3)CC2)cc2sccc21	i	1.4
CCOC(=O)CSc1nnc(CNc2cccc(Cl)c2)n1C	i	1.3
O=C(O)c1cccc(S(=O)(=O)Nc2ccc3c(c2)CCC3)c1	i	0.81
Cc1ccsc1CNC12CC3CC(CC(C3)C1)C2	i	-2.1
COC(=O)Cc1csc(Nc2ccc(F)c(Cl)c2)n1	i	0.17
Cc1nc2cc(NCc3ccccc3O)ccc2n1Cc1ccccc1	i	-1.1
CC(=O)Nc1ccc(SCC(=O)NCCc2ccc(F)cc2)cc1	i	1.9
CC(=O)c1ccc(NC(=O)CNCC(c2ccccc2)N(C)C)cc1 (stereo not drawn)	i	0.03

# (listing goes on)
# Order of results: KCNQ2 block	KCNQ2 block baseline
Cc1nn(-c2ccccc2)c(C)c1C1C(C#N)=C(N)Oc2n[nH]c(C)c21 (stereo not drawn)
    i	2
Cc1cc(C)c(C2C(C#N)=C(N)Oc3n[nH]c(C)c32)cc1CN1CCCC1 (stereo not drawn)
    i	-1.1
Cc1c(O)ccc(/C=N/Nc2ncccc2[N+](=O)[O-])c1O
    i	0.1
COC(=O)Cn1cc(/C=C/c2cc[n+](C)cc2)c2ccccc21
    i	24
O=C(c1nc2ccc(Cl)cn2c1CNCCc1cnccn1)N1CCCCCCC1
    i	1.8
CCC(C(=O)OCC(=O)N1C(C)CCCC1C)c1ccccc1 (stereo not drawn)
    i	-0.14
CCOC(=O)CSc1c(-c2cccs2)[nH]c2ccccc12
    i	-0.03
CN(CC(=O)N1CCCCC1)S(=O)(=O)c1cccc2nsnc12
    i	0.03
Cc1ccccc1NC(=O)C(C)n1c2ccccc2c2nc(=O)cc(C)n21 (stereo not drawn)
    i	-0.37
Cc1cc([N+](=O)[O-])ccc1NC(=O)COc1nsnc1N1CCOCC1
    i	1.2
Nn1c(SCC(=O)Nc2ccc3c(c2)OCCO3)nnc1-c1ccncc1
    i	-1.5
Cc1c(NC(=O)CN2CCN(C(c3ccccc3)c3ccccc3)CC2)c(=O)n(-c2ccccc2)n1C
    i	-1.8
Cc1noc(C)c1S(=O)(=O)N1CCCC1C(=O)NC(C)(C)C (stereo not drawn)
    i	2.8
COc1ccc(NC(=O)c2cc(S(=O)(=O)N(C)C)ccc2N2CCCC2)cc1Cl
    i	0.39
Cc1ccc(Cn2ccc(NC(=O)c3nc4ncccn4n3)n2)cc1
    i	-0.35

# Complete entries, quoted from the list:
# O=C(Nc1ccc2nc3n(c(=O)c2c1)CCCC3)c1cc([N+](=O)[O-])ccc1F in the list: KCNQ2 block = i; KCNQ2 block baseline = -2.5
# O=C(O)C=C1CCN(c2ncc(C(F)(F)F)cc2Cl)CC1 in the list: KCNQ2 block = i; KCNQ2 block baseline = 1.8
# COc1ccc(NC(=O)c2cc(S(=O)(=O)N(C)C)ccc2N2CCCC2)cc1Cl in the list: KCNQ2 block = i; KCNQ2 block baseline = 0.39

# Going on with the list:
# Order of results: KCNQ2 block	KCNQ2 block baseline
O=C1Cc2ccccc2C(=O)N1c1cccc(Cl)c1
    i	0.41
CN(CC(=O)Nc1ccccc1Cl)C(=O)C1CCN(S(=O)(=O)c2ccc3c(c2)OCCO3)CC1
    i	-1
Cc1ccc(/C=N/NC(=O)CN2C(=O)CSc3ccccc32)o1
    i	-0.1
CCC(=O)N1CCCc2ccccc21
    i	-1.4
CSc1ccc(S(=O)(=O)Nc2ccc(N3CCOCC3)c(Cl)c2)cc1
    i	-0.1
CCOC(=O)c1c(NC(=O)CCCN2CCOCC2)sc2c1CC(C)(C)OC2
    i	-0.16
COc1ccc(NC(=O)Cn2c(=O)n(CC3CCCO3)c(=O)c3cc(OC)c(OC)cc32)c(OC)c1 (stereo not drawn)
    i	0.46
COc1ccc(/C(C)=N/NC(=O)c2ccccc2N)cc1
    i	-0.56
O=C(O)c1ccc(COc2ccccc2/C=C2\NC(=O)N(Cc3ccccc3)C2=O)cc1
    i	3
O=C(CCc1ccccc1)NNC(=O)Cc1ccccc1
    i	0.14
Cc1ccc2[nH]c(=O)c(CN(Cc3ccc4c(c3)OCO4)Cc3nnnn3C3CCCC3)cc2c1
    i	-1.3
CCS(=O)(=O)NCCCCc1ccccc1
    i	-0.09
COc1cc(SC)ccc1C(=O)NCCOc1ccc(Cl)cc1
    i	-0.18
Cn1c(-c2ccccc2O)cc2ccccc21
    i	-0.78
COc1cc(NC(=O)CSc2nc3c(c(=O)[nH]2)CCCC3)cc(OC)c1OC
    i	0.56

# As entered above:
# For KCNQ2 block baseline, COc1cc(OC)cc(C(=O)Nc2ccccc2NC(C)=O)c1 is entered as 0.02
# For KCNQ2 block baseline, CCOC(=O)CSc1nnc(CNc2cccc(Cl)c2)n1C is entered as 1.3
# For KCNQ2 block baseline, CN1/C(=C\C=N\NC(=O)c2ccccc2Br)C(C)(C)c2ccccc21 is entered as 0.86
# For KCNQ2 block baseline, COc1ccc2nc(-c3ccccn3)[nH]c2c1 is entered as -0.31
# For KCNQ2 block baseline, COC(=O)c1sccc1NC(=S)N(C)C1CCCCC1 is entered as 1.8
# For KCNQ2 block baseline, CC(=O)c1ccc(NC(=O)CNCC(c2ccccc2)N(C)C)cc1 (stereo not drawn) is entered as 0.03

# Further compounds.
# Order of results: KCNQ2 block	KCNQ2 block baseline
CCCn1c(=O)c2ccccc2n2c(SCCNCCO)nnc12
    i	0.11
CC1(c2nnc(-c3cccc(Cl)c3)o2)CC(c2cccc(Cl)c2)=NO1 (stereo not drawn)
    i	-1.6
Cc1ccc(Nc2ccc(N)cc2S(=O)(=O)O)cc1
    i	-1.7
O=C(Cc1ccccc1)n1nc(-c2ccco2)nc1SCc1ccccc1
    i	-0.57
COc1ccc(NC2CC(=O)N(CCc3ccccc3)C2=O)cc1 (stereo not drawn)
    i	-2.1
CCN(CCn1cccn1)Cc1c(C(=O)N2C[C@@H](C)O[C@@H](C)C2)nc2ccc(Cl)cn12
    i	0.37
O=C1CC(O)(c2ccccc2)C(c2ccccc2)=C1c1ccccc1 (stereo not drawn)
    i	0.77
COc1ccc(NS(=O)(=O)CC23CCC(CC2=O)C3(C)C)cc1 (stereo not drawn)
    i	0.79
CC(C)CNC(=O)COC(=O)Cc1ccc(Cl)cc1
    i	0.34
COc1ccc(-c2csc(NC(=O)CSc3nc4ccccc4c(=O)[nH]3)n2)cc1
    i	-2.4
O=C(Nc1ccc(O)c2c(=O)cc(-c3ccccc3Cl)oc12)c1cccs1
    i	2.1
COc1ccc(-n2nnnc2Sc2ccc(S(=O)(=O)N3CCOCC3)cn2)cc1
    i	2
CCc1noc(N)c1C(=O)Nc1ccc(F)c(Cl)c1
    i	-0.23
Cc1occc1C(=O)N1CCCC(N2CCN(c3cccc(Cl)c3)CC2)C1 (stereo not drawn)
    i	-0.04
CC(Oc1ccc(Cl)cc1Cl)C(=O)Nc1ncccn1 (stereo not drawn)
    i	0.29

# This is a subset, so the mix of outcomes need not match the whole.
